GIV Gai3 FP = GIV-Galpha-i interaction inhibition; AID 1224905; percent of control (FP), % (concentration not given with the values); actives 0.42% (n = 210,000); Galpha-i3/FITC-GIV peptide fluorescence polarization, 90 min; active compounds read low; scaled: aluminum fluoride 0%, vehicle 100%;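 active means replicate mean at 85% of control or lower, very high polarization wells dropped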;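 further: wells of about 15 µL received 100 nL stock; the first replicate is given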
Target sequence (P08753 whole entry, looked up): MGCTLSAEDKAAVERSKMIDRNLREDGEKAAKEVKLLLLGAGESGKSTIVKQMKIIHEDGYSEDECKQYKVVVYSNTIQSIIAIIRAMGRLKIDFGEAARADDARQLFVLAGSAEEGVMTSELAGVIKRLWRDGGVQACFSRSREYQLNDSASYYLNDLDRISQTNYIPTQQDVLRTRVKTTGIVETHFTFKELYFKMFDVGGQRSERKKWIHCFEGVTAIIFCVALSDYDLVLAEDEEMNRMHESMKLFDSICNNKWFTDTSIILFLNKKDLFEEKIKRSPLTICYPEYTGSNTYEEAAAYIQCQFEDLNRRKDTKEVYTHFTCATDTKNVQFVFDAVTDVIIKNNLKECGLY
HCMV UL50-53 inh = cytomegalovirus nuclear egress complex inhibition; inhibition, % (concentration not given with the values); actives 0.15% (n = 190,000); HTRF UL50-UL53 interaction, normalized percent inhibition; AID 1918969;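 active means both replicates at 50% or more, plus weaker picks with an unusually low signal ratio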;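 further: stock transfer was 100 nL into about 20 µL; 0% = negative control wells and 100% = wells with untagged competitor protein; inactives centre near -12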
Sa growth 42C = inhibitors of Staphylococcus aureus growth at 42 °C | relative growth, % (no concentration beside the values) | S. aureus RN4220 growth, OD600, 20 h; active compounds read low | actives 0.53% (n = 170,000) | AID 720641;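 active means growth at 42 °C up to 50% and 20 or more points under that at 30 °C, or under 10% at both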;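 further: 300 nL library stock went into each well; scaled to the means of positive and negative controls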
Sa growth 42C second temp = second read-out of Sa growth 42C, no call of its own (marks repeat the call); relative growth, %; measured here: growth at 30 °C;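 optical density after 20 h as mean of two plates; 100% = untreated growth and lower means inhibition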
The depositor's hits bear a star; / = not tested or not shown; & = joins results of further samples.

Short forms: A = GIV Gai3 FP; B = HCMV UL50-53 inh; C = Sa growth 42C; D = Sa growth 42C second temp
Molecule: CCN(CC(=O)Nc1ccc(NC(C)=O)cc1)C(=O)c1ccccc1SCc1c(C)noc1C
  A: /; B: -5; C: 92; D: 97

Molecule: O=S(=O)(c1ccccc1)c1ncc(C(F)(F)F)cc1O
  A: 106; B: -12; C: /; D: /

Molecule: CCN(CC)c1ncccc1C(=O)NCC1CCCO1 (stereo not given)
  A: 101; B: -162; C: 121; D: 82

Molecule: O=C(NCCC(=O)N1CCN(C(=O)c2ccco2)CC1)c1ccccc1Cl
  A: /; B: -2; C: 76; D: 85

Molecule: NC(=O)C1CCN(Cc2cc(=O)n3ccsc3n2)CC1
  A: /; B: -12; C: 66; D: 91

Molecule: CCCn1c(SC(C)C(=O)c2ccc(Cl)cc2)n[nH]c1=O (stereo not given)
  A: /; B: -6; C: 97; D: 86

Molecule: CC(Oc1ccccc1)C(=O)OCc1nc2ccsc2c(=O)[nH]1 (stereo not given)
  A: /; B: -18; C: 93; D: 86

Molecule: O=C(Nc1ccc(F)cc1)c1nnc(C(=O)N2CCCC(C(=O)NCCCc3ccccc3)C2)s1 (stereo not given)
  A: 106; B: -16; C: /; D: /

Molecule: Cn1c(=O)oc2cc(S(=O)(=O)Nc3ccccc3O)ccc21
  A: 111; B: 8; C: 95; D: 66

Molecule: O=C(CCS(=O)(=O)c1ccc2c(c1)OCC(=O)N2)NCc1ccccc1Cl
  A: 97; B: /; C: 92; D: 83

Molecule: CCOC(=O)C1C(=O)NC(N2CCc3ccccc32)=NC1c1ccco1 (stereo not given)
  A: 105; B: /; C: 101; D: 92

Molecule: CC(C)(C)OC(=O)N1CCC(c2c(C(=O)N3CCCCC3)cnn2-c2ccccc2Cl)CC1
  A: 105; B: /; C: 89; D: 91

Molecule: Cc1cc(F)ccc1NC(=O)C1CCCN(C(=O)c2cnn(-c3ccccc3)c2-n2cccc2)C1 (stereo not given)
  A: 101; B: -11; C: 111; D: 81

Molecule: COCCn1c(C)cc(O)c(C(c2cccc(F)c2)N2CCN(c3ccccc3)CC2)c1=O (stereo not given)
  A: 98; B: /; C: 73; D: 88

Molecule: Cc1cc2oc(=O)cc(Cn3ccsc3=N)c2cc1C(C)C
  A: /; B: -17; C: 50*; D: 93*

Molecule: O=C(C1CCCO1)N1CCN(C(=S)NC2CCCCC2)CC1 (stereo not given)
  A: 100; B: -17; C: 101; D: 94

Molecule: OC1(C(F)(F)F)CC(c2ccncc2)=NN1 (stereo not given)
  A: 102; B: -30; C: 89; D: 84

Molecule: CC1=C(C(N)=O)C(c2ccc(C)cc2)n2nc(SCc3ccccc3F)nc2N1 (stereo not given)
  A: 101; B: -4; C: 141; D: 92

Molecule: CN(C)/C=C(\C#N)C(=O)NCc1ccc(F)cc1F
  A: 109; B: -8; C: 99; D: 92

Molecule: COCc1nnc2n1N=C(c1ccccc1)CS2
  A: 104; B: -7; C: /; D: /

Molecule: CCOc1ccc(OCC(=O)NCCS(=O)(=O)N2CCN(c3cccc(Cl)c3)CC2)cc1
  A: 100; B: /; C: 105; D: 85

Molecule: Cc1ccc(N2CCN(c3ccc(S(=O)(=O)C(C)(C)C)nn3)CC2)c(C)c1
  A: 101; B: -26; C: /; D: /

Molecule: COc1ccc(C(=O)N2c3ccccc3CCc3ccccc32)cc1
  A: /; B: 3; C: 110; D: 105

Molecule: Cc1cccc(OCc2nc(C)c(C(=O)NC3CCCCC3)s2)c1
  A: 106; B: -14; C: /; D: /

Molecule: O=C(O)/C=C/c1c(Cl)nc2ccccn12
  A: /; B: -64; C: 67; D: 86

Molecule: O=C1CS/C(=C\c2nc3ccccc3s2)N1
  A: /; B: -19; C: 144; D: 114

Molecule: COc1ccc(N2CCN(S(=O)(=O)CCNC(=O)c3cc(=O)c4ccccc4o3)CC2)cc1
  A: 110; B: /; C: 87; D: 88

Molecule: Cc1ccc(COc2ccc(Br)cc2/C=c2/sc3nc4ccccc4n3c2=O)cc1
  A: 98; B: -2; C: /; D: /

Molecule: CC1CCCCC1NC(=O)CCSCc1cccc(Cl)c1 (stereo not given)
  A: 104; B: /; C: 140; D: 84

Molecule: CC1=CC(C)C(C(=O)O)C(C(=O)N2CCN(C)CC2)C1 (stereo not given)
  A: /; B: -5; C: 91; D: 97

Molecule: CC1=C(C(=O)Nc2ccc(C)cc2)C(c2cccnc2)n2nnnc2N1 (stereo not given)
  A: 97; B: -22; C: /; D: /

Molecule: COc1ccc(CCNC(=O)c2cc3sccc3n2Cc2ccc(Cl)cc2)cc1OC
  A: 103; B: -9; C: 110; D: 85

Molecule: Cc1[nH]c2c(C)cccc2c1C(O)CN1CCN(c2ccccc2F)CC1 (stereo not given)
  A: 102; B: -25; C: /; D: /

Molecule: CSc1nsc(SCC(=O)NC2CCCCC2)n1
  A: 105; B: -6; C: 105; D: 100

Molecule: CN(/N=C/c1ccc(C(C)(C)C)cc1)C1=NCCN1
  A: 103; B: /; C: 101; D: 94

Molecule: NC(=O)CCCC1=NS(=O)(=O)c2ccccc2N1
  A: 96; B: 5; C: 104; D: 94

Molecule: Cc1ccc(C(=O)C(C)Sc2nnc3ccccn23)cc1 (stereo not given)
  A: /; B: -6; C: 100; D: 102

Molecule: CCOC(=O)c1c(NC(=O)CN2CCCC2c2cccn2C)sc(C)c1C (stereo not given)
  A: /; B: -16; C: 85; D: 95

Molecule: CN(Cn1[nH]c(=O)ccc1=O)c1ccccc1
  A: /; B: -21; C: 108; D: 91

Molecule: O=c1c(O)c(-c2cccs2)[nH]c2cc(Cl)ccc12
  A: /; B: -13; C: 99; D: 80

Molecule: CCOc1ccc(Nc2sc(C(=O)c3ccc4c(c3)OCO4)c(N)c2S(=O)(=O)c2ccc(C)cc2)cc1
  A: 105; B: /; C: 107; D: 101

Molecule: COc1ccc(NCn2nnc3ccccc32)cc1
  A: /; B: -45; C: 128; D: 73

Molecule: O=C1c2ccccc2S(=O)(=O)N1c1c(F)c(F)c(C(F)(F)F)c(F)c1F
  A: 101; B: -23; C: /; D: /

Molecule: COc1cccc(NC(=S)N/N=C/c2ccc(O)cc2)c1
  A: /; B: 8; C: 93; D: 81

Molecule: COc1ccccc1NC(=O)C1CC(=O)N(C)C(=Nc2cccc(C(F)(F)F)c2)S1 (stereo not given)
  A: 105; B: -24; C: /; D: /

Molecule: O=c1ccn(-c2ccccc2)[nH]1
  A: /; B: -17; C: 79; D: 46

Molecule: CCC(C(=O)N1CCN(c2cc(Cl)ccc2C)CC1)n1nc(C)c2sc3ccccc3c2c1=O (stereo not given)
  A: 102; B: -8; C: 105; D: 91

Molecule: c1ccc(-c2csc(Nc3cccnc3)n2)cc1
  A: 110; B: 10; C: 100; D: 106

Molecule: CCOC(=O)c1c(C#N)c(C)n(-c2ccccc2)c1C
  A: /; B: -39; C: 120; D: 83

Molecule: CCS(=O)c1ccccc1C(=O)NCc1ccc(F)cc1 (stereo not given)
  A: /; B: -16; C: 47; D: 72

Further records.
Short forms: A = GIV Gai3 FP; B = HCMV UL50-53 inh; C = Sa growth 42C; D = Sa growth 42C second temp
Molecule: COc1cccc(Cn2c(SCc3ccc(C(=O)N4CCCCC4)cc3)nc3ccncc32)c1
  A: 103; B: -20; C: 109; D: 70

Molecule: CCOC(=O)c1c(C)oc2nc(C)nc(NCc3ccc(OC)cc3)c12
  A: 105; B: /; C: 79; D: 90

Molecule: CN1CCN(C(=O)c2cc3ccccc3o2)CC1
  A: /; B: -17; C: 103; D: 91

Molecule: COc1cccc(C(=O)N2CCCCCC2)c1
  A: /; B: -6; C: 99; D: 89

Molecule: CSc1ncc(C(=O)NN)n1C
  A: 110; B: 34; C: 101; D: 98

Molecule: Cc1ccccc1-c1nc(CSc2nc(C(F)(F)F)cc(=O)[nH]2)c(C)o1
  A: 109; B: -44; C: /; D: /

Molecule: CCC(c1nnnn1C1CCCC1)N(Cc1cccs1)Cc1cc2cccc(C)c2[nH]c1=O (stereo not given)
  A: 104; B: 1; C: 81; D: 92

Molecule: CN(C1CCCC1)C1CCN(c2ccc3nnc(-c4ccc(F)cc4)n3n2)CC1
  A: 105&100; B: 4&-10; C: 87; D: 91

Molecule: O=C(c1ccc2c(c1)N(Cc1ccccc1)CCS2)N1CCN(c2ccccn2)CC1
  A: 106; B: /; C: 135; D: 82

Molecule: CCCn1c(NC(=O)[C@@H](NC(=O)c2cc(OC)cc(OC)c2)C(C)C)nc2ccccc21
  A: /; B: -4; C: 17; D: 14

Molecule: Cc1ccc(Cl)cc1N1CCN(S(=O)(=O)c2cc(Br)cc3c2N(C(=O)C2CC2)CC3)CC1
  A: 98; B: 2; C: 94; D: 98

Molecule: CC[n+]1ccsc1Nc1c(C)cccc1C
  A: 102; B: -4; C: 76; D: 69

Molecule: CC1CC(C)(C)NC(=S)N1CCCC(=O)N1CCN(c2ccccc2)CC1 (stereo not given)
  A: 98; B: /; C: 131; D: 87

Molecule: Cc1cc(C)c2c(=O)cc(-c3ccccc3Cl)oc2c1
  A: 98; B: -30; C: 115; D: 85

Molecule: COC(=O)c1c(NC(=O)/C(C#N)=C/c2ccco2)sc(C)c1C
  A: 105; B: -16; C: 88; D: 85

Molecule: CCOc1ccc(-n2c(=O)c3c4c(sc3n(Cc3cccc(C)c3)c2=O)CCCC4)cc1
  A: 104; B: -4; C: 99; D: 90

Molecule: CCN(c1ccc(OC)cc1)S(=O)(=O)c1ccc2c(c1)CC(C)N2C(C)=O (stereo not given)
  A: 100; B: -17; C: 107; D: 79

Molecule: COc1ccc(CCC(=O)Nc2ccc(-c3noc(-c4ccc(OC)c(OC)c4)n3)cc2)cc1
  A: 99; B: 0; C: 110; D: 91

Molecule: Cc1cc(=O)[nH]c(Nc2ccc3c(c2)OCO3)n1
  A: 107; B: -25; C: /; D: /

Molecule: CCOC(=O)c1cc(C)n(CC(=O)OCc2ccc(C#N)cc2)c1C
  A: /; B: -2; C: 85; D: 98

Molecule: COc1cccc(NC(=O)Nc2nnc(COc3ccccc3F)s2)c1
  A: 99; B: 16; C: /; D: /

Molecule: Cc1ccc(OCC2CN(Cc3ccccc3)C(=O)O2)cc1 (stereo not given)
  A: 105; B: -20; C: 93; D: 89

Molecule: O=S(=O)(NCC(Nc1ccccc1)c1ccccc1)c1ccc(Cl)cc1 (stereo not given)
  A: /; B: -22; C: 115; D: 89

Molecule: COC(=O)C1=C(CSc2nc3ccccc3o2)NC(=O)NC1c1cccc(OC)c1 (stereo not given)
  A: 103; B: /; C: 95; D: 83

Molecule: CCCNC(=O)CN1C(=O)c2cccnc2Sc2ccccc21
  A: 105; B: /; C: 80; D: 89

Whole records from above. Order of screens: GIV Gai3 FP, HCMV UL50-53 inh, Sa growth 42C, Sa growth 42C second temp
`O=C(c1ccc2c(c1)N(Cc1ccccc1)CCS2)N1CCN(c2ccccn2)CC1` in the list: 106, /, 135, 82
`Cc1cc(=O)[nH]c(Nc2ccc3c(c2)OCO3)n1` in the list: 107, -25, /, /
`COc1cccc(C(=O)N2CCCCCC2)c1` in the list: /, -6, 99, 89
`CCOc1ccc(-n2c(=O)c3c4c(sc3n(Cc3cccc(C)c3)c2=O)CCCC4)cc1` in the list: 104, -4, 99, 90

Next part
Short forms: A = GIV Gai3 FP; B = HCMV UL50-53 inh; C = Sa growth 42C; D = Sa growth 42C second temp
Molecule: CCOC(=O)c1ccccc1Nc1nc(C)nc2c1CCC2
  A: 105; B: -18; C: /; D: /

Molecule: CCc1nnc(NC(=O)CSc2nnc(-c3cc4cc(Cl)ccc4o3)n2C)s1
  A: 103; B: 1; C: /; D: /

Molecule: Cc1cccc(-n2ncc(C(=O)O)c2-n2cccc2)c1
  A: 104; B: -16; C: /; D: /

Molecule: O=C(NCc1ccc(F)cc1)c1ccc(N2CCCS2(=O)=O)cc1
  A: 105; B: /; C: 88; D: 87

Molecule: Cc1cccc(N(CC(=O)Nc2ccccc2C(F)(F)F)S(=O)(=O)c2ccccc2)c1C
  A: 97; B: 3; C: 94; D: 99

Molecule: O=C(Oc1ccc(Oc2ccccc2)cc1)N1CCC(O)CC1
  A: 99; B: 1; C: 123; D: 92

Molecule: CC(C)CC(=O)N1CCN(C(=O)COc2ccc(-c3ccccc3)cc2)CC1
  A: /; B: -5; C: 95; D: 75

Molecule: COC(=O)CN(c1nc2nc(C)cc(C)n2n1)S(=O)(=O)c1ccc(C)cc1
  A: 106; B: -26; C: /; D: /

Molecule: Cc1nc(C)c(-c2csc(Nc3ccccc3)n2)s1
  A: /; B: -49; C: 55; D: 72

Molecule: Cc1onc(-c2c(F)cccc2Cl)c1C(=O)N=C(N)N1CC(C)OC(C)C1 (stereo not given)
  A: 102; B: -19; C: 97; D: 83

Some of the entries so far, with values under each structure:
Results follow in this order: GIV Gai3 FP	HCMV UL50-53 inh	Sa growth 42C	Sa growth 42C second temp
> O=C(NCc1ccc(F)cc1)c1ccc(N2CCCS2(=O)=O)cc1
    105	/	88	87
> Cc1cccc(N(CC(=O)Nc2ccccc2C(F)(F)F)S(=O)(=O)c2ccccc2)c1C
    97	3	94	99
> O=C(Oc1ccc(Oc2ccccc2)cc1)N1CCC(O)CC1
    99	1	123	92
> CC(C)CC(=O)N1CCN(C(=O)COc2ccc(-c3ccccc3)cc2)CC1
    /	-5	95	75
> COC(=O)CN(c1nc2nc(C)cc(C)n2n1)S(=O)(=O)c1ccc(C)cc1
    106	-26	/	/
> Cc1nc(C)c(-c2csc(Nc3ccccc3)n2)s1
    /	-49	55	72

Screening results (PubChem BioAssay)

Rows were taken by chance. Share with any hit: about 0.79%.
